Screening data as filed in PubChem.
HIV Env fusion – blocks HIV Env-driven cell-cell fusion. HeLa-JRFL Env/CEM21 cell fusion, luciferase. inhibition, % at 12.3 µM. actives 1.1% (n = 360,000). AID 651610;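 active = mean replicate inhibition score of at least 50 and every replicate individually at or above 50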;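 also: 0% = plate neutral controls and 100% = maraviroc near 300 nM; one replicate is shown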
MT1-MMP act inh – MT1-MMP (human) activation inhibition | P50281 | HT1080 RFP-PRO-GFP cells, GFP/RFP ratio fluorescence, overnight; percent of plate control window, DMSO zero | GFP/RFP ratio change, % at 20 µM | actives 0.061% (n = 360,000) | AID 651647;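 active = GFP/RFP ratio change of at least 30% with cell ATP level not reduced by more than half and red fluorescence within 50% of control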; also: strong numbers were not always called active
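Test system: HT1080 cells expressing an RFP-PRO-GFP fluorescent reporter construct / Compound dosing: single-point 20 µM compound, 1% DMSO / Schedule: cells overnight before dosing, compound overnight, 37 °C, 5% CO2 / Evaluation: GFP/RFP fluorescence ratio / Control set: DMSO and RFP-L50D-GFP cell wells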
Yeast UUG start – yeast start codon fidelity modulation | S. cerevisiae UUG-firefly luciferase reporter, luminescence/redox ratio | activity score, % at 18.7 µM | actives 0.13% (n = 350,000);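 active = replicate mean at a twofold rise or more, about +100% in these data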;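 also: firefly luciferase made from a UUG start codon reports start codon fidelity; reporter light over untreated wells divided by growth signal over untreated wells; some hits fall short of that in this replicate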
Rce1 inh – yeast Ras-converting enzyme inhibition | yeast membranes, quenched prenylated peptide cleavage fluorescence | actives 0.27% (n = 290,000) | Q03530 | calls only;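 active = fall in fluorescence gain of 50% or more versus controls, with final raw signal at or below 3038400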;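 also: plate controls were neutral control wells for no effect and wells lacking membranes for full effect; tested at 10 µM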
Target sequence (Q03530 whole entry, looked up): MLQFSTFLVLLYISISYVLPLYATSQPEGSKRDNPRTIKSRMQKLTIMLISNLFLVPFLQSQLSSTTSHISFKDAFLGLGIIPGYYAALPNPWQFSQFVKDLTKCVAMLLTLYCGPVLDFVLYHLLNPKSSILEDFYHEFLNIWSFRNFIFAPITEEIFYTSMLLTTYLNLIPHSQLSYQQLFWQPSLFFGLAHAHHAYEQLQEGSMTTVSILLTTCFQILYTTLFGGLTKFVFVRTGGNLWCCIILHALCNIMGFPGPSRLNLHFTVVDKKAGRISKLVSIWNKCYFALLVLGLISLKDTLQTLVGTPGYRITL
PABP polyA inh – PABP-poly(A) binding inhibition; PABP-poly(A) RNA binding, fluorescence polarization; inhibition, % at 35 µM; actives 1% (n = 290,000); AID 2014;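 active = 50% or more with normal probe brightness, or confirmed in later tests; about a fifth of its hits are not listed in these tables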;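 also: calls also rest on retests at 20 µM and on dose response follow-up; controls were probe without protein and protein plus probe with vehicle; some compounds called inactive have numbers as strong as hits; many hits fall short of the cut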
Target sequence (P11940 whole entry, looked up): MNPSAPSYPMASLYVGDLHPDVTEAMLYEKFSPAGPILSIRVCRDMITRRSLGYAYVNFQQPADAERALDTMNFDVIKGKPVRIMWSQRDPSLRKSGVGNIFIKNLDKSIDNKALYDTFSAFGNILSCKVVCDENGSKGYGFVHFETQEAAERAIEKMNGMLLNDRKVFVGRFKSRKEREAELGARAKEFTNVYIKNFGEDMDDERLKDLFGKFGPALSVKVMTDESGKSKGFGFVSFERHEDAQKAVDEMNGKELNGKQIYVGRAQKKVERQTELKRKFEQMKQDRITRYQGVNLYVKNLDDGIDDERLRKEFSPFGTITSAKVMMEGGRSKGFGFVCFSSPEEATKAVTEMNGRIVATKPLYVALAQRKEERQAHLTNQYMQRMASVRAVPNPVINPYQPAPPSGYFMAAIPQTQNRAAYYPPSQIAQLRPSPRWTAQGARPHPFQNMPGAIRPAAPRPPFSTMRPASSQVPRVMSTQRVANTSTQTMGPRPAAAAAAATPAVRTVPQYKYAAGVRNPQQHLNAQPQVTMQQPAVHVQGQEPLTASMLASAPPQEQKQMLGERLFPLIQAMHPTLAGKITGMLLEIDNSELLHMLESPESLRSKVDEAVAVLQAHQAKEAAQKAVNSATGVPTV
CSC inhib – blocks cancer stem cells. cancer stem cell-like cells viability, luminescence. inhibition, % at 7.5 µM. actives 1.1% (n = 300,000);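 active = mean at 75% or more and at least half the replicates too; tested in HMLE shEcad cells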;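 also: 0% = median of negative and 100% = median of positive control wells; the first replicate is given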
eIF4H FP inh – inhibitors of RNA binding by human eIF4H; Q15056; eIF4H fluorescence polarization binding assay; inhibition, % at 35 µM; actives 0.94% (n = 290,000); AID 2012;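 active = 50% or more with normal probe brightness, or confirmed in later tests; about a fifth of its hits are not listed in these tables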;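 also: calls also rest on retests at 20 µM and on dose response follow-up; 0% = protein and probe with vehicle and 100% = probe without protein; strong numbers were not always called active; many hits fall short of the cut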
eIF4H FP inh retest – second read-out of eIF4H FP inh, no call of its own (marks repeat the call); inhibition, %; compound at 20 µM; confirmation average;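 mean of two retest wells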
PABP polyA inh retest – recorded beside PABP polyA inh, whose call it bears; inhibition, %; compound at 20 µM; confirmation repeats;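 mean of two retest wells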
MT1-MMP act inh RFP – also measured in MT1-MMP act inh; calls as there; RFP signal change, %; measured here: RFP expression control read;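 0 = vehicle wells; hits needed this value within 50% of zero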
The depositor's hits bear a star; i = inactive; x = no result given; & = joins results of further samples; [ ] = remark or other dose.

Sample of the layout (2 entries):
SMILES	HIV Env fusion	MT1-MMP act inh	MT1-MMP act inh RFP	Yeast UUG start	Rce1 inh	PABP polyA inh	CSC inhib	eIF4H FP inh	others
CC1CCc2[nH]c3ccc(C(=O)N(C)CC(=O)Nc4ccccc4Cl)cc3c2C1 (stereo not given)	-35	-1	-1	-2	x	x	x	x
O=C1NC(c2cccs2)Nc2ccccc21 (stereo not given)	x	-5	-1	-17	x	-5	-7	-14

This part in full, from the start:
SMILES	HIV Env fusion	MT1-MMP act inh	MT1-MMP act inh RFP	Yeast UUG start	Rce1 inh	PABP polyA inh	CSC inhib	eIF4H FP inh	others
CC1CCc2[nH]c3ccc(C(=O)N(C)CC(=O)Nc4ccccc4Cl)cc3c2C1 (stereo not given)	-35	-1	-1	-2	x	x	x	x
O=C1NC(c2cccs2)Nc2ccccc21 (stereo not given)	x	-5	-1	-17	x	-5	-7	-14
COc1ccc(/C=N/Nc2nc(C)cc(=O)[nH]2)cc1OC	-13	4	2	-22	i	24	-11	-14
O=C(CSc1nc2ccccc2[nH]1)Nc1nc(-c2cccc(Br)c2)cs1	14	-3	4	x	i	-2	-11	-1
Cc1ccc([C@H]2C[C@H](n3cc(COC(=O)c4ccccc4)nn3)[C@@H](O)CN2Cc2cccs2)cc1	-6	-2	5	3	x	x	x	x
CC1CCN(c2nc3c(N)ncnc3n2[C@@H]2O[C@H](CO)[C@@H](O)[C@H]2O)CC1	15	3	3	-5	i	13	-1	7
CC(=O)c1c(-c2ccccc2)c2cc([N+](=O)[O-])ccc2[nH]c1=O	5	-10	-8	2	i	-11	1	-8
O=C(Nc1ccccc1C(F)(F)F)c1ccc(CN2CCC(Cc3ccccc3)CC2)cc1	x	1	-10	1	i	-13	20	-1
COc1ccc(-n2nc([N+](=O)[O-])c(=NCc3ccco3)n2O)cc1	-13	-7	-4	x	i	-7	-5	3
O=C(NCc1ccco1)C1CCCCC1	15	2	3	-16	i	-6	-15	-2
O=C(CCNc1ccccc1)c1cccc([N+](=O)[O-])c1	13	6	-2	x	i	-5	10	-8
C/C(=N\N)c1c(-c2ccccc2)c2cc(C)ccc2[nH]c1=O	5	1	2	-12	i	-14	3	-12
O=C1NC(c2ccccc2Br)=N/C1=C\c1ccco1	-15	-3	3	x	i	47*	8	57*	eIF4H FP inh retest=86*;PABP polyA inh retest=54*
CC(Cc1ccccc1)N/C=C1/CC(=O)NC1=O (stereo not given)	-45	3	5	-16	i	8	-10	11
COc1ccc(Br)c(Cn2c(C)c(C(=O)NCCC#N)sc2=O)c1	-16	3	-1	-18	x	x	x	x
CCCCOc1ccc(C(=O)Oc2ccc(C)nc2)cc1	x	-3	-1	-19	i	1	x	-1
CCCc1ccc(Oc2cc(N3CCOCC3)nc(-c3ccccc3)n2)cc1	x	-2	-3	-15	i	x	36	x
Cc1c(Cl)cccc1NC(=S)NCc1ccccc1Cl	10	2	2	-37	i	2	8	-3
C[C@@H]1CN([C@@H](C)CO)C(=O)CCCn2nncc2CO[C@@H]1CN(C)S(=O)(=O)c1ccc(Cl)cc1	-4[16.7 µM]	1	3	3&15&-7	x	x	x	x
CS(=O)(=O)N(CC(=O)N1CCC(C(N)=O)CC1)c1ccc(Oc2ccccc2)cc1	x	-1	-2	x	i	-1	-3	6
Cc1cc(C)n2nc(C(=O)Nc3c(C)nn(Cc4ccc(F)cc4)c3C)cc2n1	6	-4	0	x	i	-4	0	-3
COC(=O)c1ccc(-c2ccc(/C=N/NC(=O)CC3(C)OCCCO3)o2)cc1	-22	-2	0	-13	i	0	-5	10
Cc1sc2ncn(C(C)C(=O)OC3CCCCC3)c(=O)c2c1C (stereo not given)	x	4	4	0	i	12	10	4
N/C(=N\OC(=O)c1ccc(Cl)cc1[N+](=O)[O-])c1cccnc1	-48	1	1	x	i	11	-7	6
O=C(OCc1nc2ccccc2[nH]1)C12CC3CC(CC(C3)C1)C2	-24	6	-1	-16	i	1	-10	-5
COC(=O)C1=C(NC(=O)COc2ccc(Cl)cc2Cl)CCS1	-29	0	0	x	i	5	17	0
Cc1ccc2nc(-c3ccccc3)cc(C(=O)N3CC(C)OC(C)C3)c2c1 (stereo not given)	-34	-1	5	5	i	x	x	x
CC(C)(C)NC(=S)NNC(=O)c1cccc(Br)c1	-33	-2	0	x	i	12	-9	17
Cc1ccccc1-n1c(Cc2cccs2)n[nH]c1=S	x	2	1	4	i	-6	-13	-1
CC(=O)NC1CCCc2c1cnn2-c1ccc(C(C)(C)C)cc1 (stereo not given)	-9	5	-6	-4	i	8	-16	-4
Cc1cc(NC(=O)C2CCCCC2)ccc1NC(=O)c1ccccc1Cl	-2	-1	2	x	i	47	-12	6
O=C(CSc1ccccc1)NCC1(N2CCCCC2)CCCCC1	19	-6	-1	x	i	x	-2	x
Cc1ccc(-c2nnn(CC(=O)N(CC3CCCO3)C(C(=O)NC3CCCC3)c3ccc(F)cc3)n2)o1 (stereo not given)	x	-5	0	-11	i	-8	-7	1
O=C(NC1CCCCCC1)c1ccc(Br)o1	-7	4	3	-6	i	5	-5	-8
O=C(c1cc(COc2ccc(F)cc2F)on1)N1CCOCC1	-21	3	3	-1	i	9	-1	2
CSc1nc(NCCCN(C)C)c2c3c(sc2n1)CN(C)CC3	8	x	x	x	i	15	5	-4
Nc1ccc2c(c1)C1(CCC2)NC(=O)NC1=O (stereo not given)	2	-3	4	1	x	x	x	x
CCCC1(CCC)NC(=O)NC1=O	x	7	9	-9	i	-3	x	-10
O=c1c(N2CCOCC2)coc2ccccc12	2	2	4	x	i	2	-1	3
CN(C(=O)c1cccc(NC(=O)Cc2cccc(NC(=O)C3CCCN(C(=O)C4CC4)C3)c2)c1)C1CC1 (stereo not given)	-4	7	7	-8	x	x	x	x
COc1ccc(N(Cc2ccccc2)C(=O)OC(C)(C)C)c(C(=O)N(C)OC)c1	20	-2	3	0	x	x	7	x
CC(C)c1ccc(NC(=O)N2CCOCC2)cc1	-39	1	4	-9	i	-1	-5	-3
CCOC(=O)Cc1nnc(NC(=O)C2CCCCC2)s1	12	3	9	x	i	-5	0	-2
O=[N+]([O-])c1ccc2c(c1)nc1n2CCN(C2CCCCC2)C1	-15	1	-1	x	i	-3	-4	-9
CCOCCCNS(=O)(=O)c1ccc(Br)cc1	-10	2	1	-3	i	-2	-4	3

Quoted at random: 3 entries already listed, in no set order.
SMILES	HIV Env fusion	MT1-MMP act inh	MT1-MMP act inh RFP	Yeast UUG start	Rce1 inh	PABP polyA inh	CSC inhib	eIF4H FP inh	others
O=C(c1cc(COc2ccc(F)cc2F)on1)N1CCOCC1	-21	3	3	-1	i	9	-1	2
CCOC(=O)Cc1nnc(NC(=O)C2CCCCC2)s1	12	3	9	x	i	-5	0	-2
Cc1cc(C)n2nc(C(=O)Nc3c(C)nn(Cc4ccc(F)cc4)c3C)cc2n1	6	-4	0	x	i	-4	0	-3

The list continues:
SMILES	HIV Env fusion	MT1-MMP act inh	MT1-MMP act inh RFP	Yeast UUG start	Rce1 inh	PABP polyA inh	CSC inhib	eIF4H FP inh	others
CCc1cccc2c(=O)c(C(=O)N3CCOCC3)c[nH]c12	-38	2	9	-26	i	-3	6	-7
CCCn1c(=S)[nH]c2cc(OC)c(OC)cc2c1=O	x	1	1	-18	i	1	-6	-12
O=C(CNS(=O)(=O)c1ccccc1)Nc1ccc(F)cc1F	1	-1	3	18	i	-13	-5	-4
O=C(CSc1nnc(CNC(=O)c2ccccc2)o1)c1ccccc1	-12	-3	-3	-1	i	3	-8	-4
CCc1ccc(NC(=O)CSc2nc3ncc(Br)cc3[nH]2)cc1	3	-2	-5	-17	i	-2	28	-12
CCOC(=O)C1=C(C)N=c2s/c(=C\c3ccc(C(=O)O)cc3)c(=O)n2C1c1ccc(OC)cc1OC (stereo not given)	4	0	1	-19	i	x	-8	x
COc1ccc(O)c(C(=O)c2cnn(C(=O)c3cccc(S(=O)(=O)N(C)C)c3)c2)c1	11	-6	-5	-11	x	x	-9	x
CCOC(=O)C(C)Sc1nnc(Cc2cc(=O)[nH]c(=O)[nH]2)n1-c1ccc(OCC)cc1 (stereo not given)	-10	-6	5	14	x	8	-11	0
Cc1ccc(CSc2ncn(-c3ccccc3)n2)cc1	-43	10	4	3	i	8	11	-3
CC(Oc1ccccc1)C(=O)N1CCC2(CC1)CC(=O)c1ccccc1O2 (stereo not given)	16	-1	-5	x	i	x	21	x
COc1ccccc1NC(=O)CN(Cc1ccco1)C(=O)c1cc2ccccc2o1	x	4	1	x	i	-6	-3	5
COc1ccc(-c2nnc(SCC(=O)NNC(=O)Cc3ccccc3)n2C)cc1OC	5	2	3	x	i	-1	-10	5
CCC(=O)N1CCCC(C)(C(=O)Nc2ccc(C)c(C)c2)C1 (stereo not given)	-90	2	3	-4	x	x	x	x
COc1ccc(C(C)(C)C)cc1NC(=O)COC(=O)CN1C(=O)NC2(CCCCC2C)C1=O (stereo not given)	-9	0	1	10	x	x	-14	x
CCCCN=c1scc(-c2ccc3c(c2)NC(=O)CO3)n1N=C1CCCC1	x	-22	-18	-2	i	-4	-5	-20
Cc1ccc(-n2nnnc2CNC(=O)c2ccc3c(c2)OCO3)cc1C	-3	1	1	-1	i	5	-9	8
COCCCNC(=S)NNC(=O)C(O)(c1ccccc1)c1ccccc1	9	3	4	-16	i	0	5	1
O=C(CSc1ccccc1)Nc1ccc(NC(=O)c2ccco2)cc1	x	5	-1	-6	i	5	x	2
Cc1cccc(CC(=O)Nc2sc(C(C)C)cc2C(=O)N2CCOCC2)c1	x	3	0	-11	i	4	-1	-5
CCCCn1c(=O)[nH]c(=O)c2c1nc(-c1cc(Br)c(OCC)c(OC)c1)n2C	20	2	2	-14	i	-2	-11	-16
O=C(CSC1=NC(=O)C(Cc2ccccc2)C(=O)N1)NC1CCCCC1 (stereo not given)	-6	-4	-2	-10	i	-4	x	7
O=C(O)CSCC(=O)N1CCN(c2nc3cc(Cl)ccc3s2)CC1	-31	2	1	-1	i	10	3	12
COc1ccc(CCN2CC(C(=O)NCCc3cccc(F)c3)CCC2=O)cc1 (stereo not given)	0	3	6	-10	i	12	x	2
CN(C(=O)OCc1ccccc1)C(CC(N)=O)C(=O)O (stereo not given)	-60	5	2	-6	i	4	-8	-4
CCN(CC)C(=O)c1ccc(-c2nnc(Nc3ccc(O)cc3)c3ccccc23)cc1	32	-1	-3	-5	i	3	-9	-11
CCOc1ccc(NS(=O)(=O)c2cccs2)cc1S(=O)(=O)N1CCCC1	-4	1	-5	-9	x	x	x	x
N#C[C@@H]1[C@@H]2C(=O)N(c3ccc4c(c3)OCCO4)C(=O)[C@@H]2C2c3ccccc3C=CN21 (stereo not given in full)	x	x	x	x	i	-14	-1	40
Cc1c(C(=O)N2CCC(C)CC2)sc2ncnc(N3CCN(c4ccccc4)CC3)c12	-2	-3	-8	0	i	-8	x	-9
C[C@@H](C(=O)NCCc1c[nH]c2ccccc12)[C@H]1C[C@]1(C)[C@H](NC(=O)OCc1ccccc1)c1ccccc1	38	-2	-4	-4	i	4	28	-7
CCOC(=O)/C(C#N)=N/Nc1ccccc1C(=O)O	5	3	2	-22	i	8	-1	-12
O=C(CN1CCC(C(=O)c2ccc(F)cc2)CC1)NCc1ccccc1F	27	4	-5	-10	i	-2	14	-10
Cn1c(=O)c2c(ncn2CCc2ccccc2)n(C)c1=O	-6	2	2	x	i	-7	-14	1
O=C(Nc1ccc(N2CCCC2)cc1)c1cc([N+](=O)[O-])ccc1N1CCOCC1	0	-3	-4	12	i	-8	18	1
Cc1ccc(/C(O)=C2/C(=O)C(=O)N(CCN3CCOCC3)C2c2cccnc2)cc1 (stereo not given)	-11	6	8	-13	i	-13	-3	-5
O=C(CCNC(=O)OCc1ccccc1)NC1CCCCCC1	3	5	7	x	i	-7	-9	-6

Not all compounds are listed (hit frequency here may not be typical).
